PNC inhibitor = perinucleolar compartment assembly inhibition. PC3M PTB-GFP, PNC prevalence imaging, 16 h; stronger effect = lower value. activity change (PNC), negative = inhibition, % at 10 µM. 140,000 compounds, 3.1% hits. AID 2417;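 active = readout at or below -70, meaning at least 70% loss of cells showing the perinucleolar compartment, a nuclear body marking cancer cells; inconclusive = readout between -30 and a set limit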;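 also: plate controls were DMSO wells for no effect and camptothecin positive control wells for full effect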
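PC3M cells stably expressing PTB-GFP, 750–1000 cells/well, treated 16 h at 37 °C with compound (23 nl of library stock), in duplicate. After paraformaldehyde fixation and Hoechst stain, imaged at 20x; PNC prevalence scored by image analysis.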
15-hLO-2 inh = 15-hLO-2 (ALOX15B) enzyme inhibition. O15296. purified 15hLO-2, xylenol orange hydroperoxide absorbance. Potency, µM (series often up to 57.1 µM), inactives show at the top dose activity change, negative = inhibition, hits mostly inhibitors. 110,000 compounds, 0.56% hits. AID 881; active = well fitted inhibition curve with a large enough effect; inconclusive = small, poorly fitted or top-dose-only effect; inactive = no such curve, though single readings can be large or run the other way; also: potency is read from the fitted curve at half-maximal effect; nearly all actives have a fitted effect of over 60% in size; many of its hits are not listed in these tables
Target sequence (O15296 whole entry, looked up): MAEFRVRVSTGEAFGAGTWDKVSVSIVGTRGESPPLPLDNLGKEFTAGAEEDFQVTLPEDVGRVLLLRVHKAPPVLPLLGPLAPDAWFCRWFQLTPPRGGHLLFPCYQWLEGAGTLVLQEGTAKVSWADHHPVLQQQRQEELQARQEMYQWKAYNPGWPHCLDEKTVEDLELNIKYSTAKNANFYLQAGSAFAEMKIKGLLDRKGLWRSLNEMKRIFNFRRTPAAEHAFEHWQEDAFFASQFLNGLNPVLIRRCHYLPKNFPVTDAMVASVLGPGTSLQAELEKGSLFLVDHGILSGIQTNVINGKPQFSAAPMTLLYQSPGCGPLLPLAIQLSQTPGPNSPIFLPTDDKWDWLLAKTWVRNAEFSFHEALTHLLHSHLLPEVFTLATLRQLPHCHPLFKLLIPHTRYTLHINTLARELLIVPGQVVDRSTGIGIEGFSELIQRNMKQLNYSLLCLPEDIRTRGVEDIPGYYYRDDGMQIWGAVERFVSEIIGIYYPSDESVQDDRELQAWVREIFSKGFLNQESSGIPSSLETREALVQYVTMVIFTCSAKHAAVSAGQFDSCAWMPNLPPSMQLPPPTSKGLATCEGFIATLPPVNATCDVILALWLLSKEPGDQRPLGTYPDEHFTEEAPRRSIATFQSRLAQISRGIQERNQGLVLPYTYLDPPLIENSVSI
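Purified human 15hLO-2 (50 nM final) preincubated with compounds 15 min at room temperature in 25 mM Hepes pH 7.5, 0.01% Triton X-100, then 45 uM arachidonic acid added for 90 min; hydroperoxide detected via ferrous/xylenol orange, 573/405 nm absorbance ratio.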
Starred values were filed as active, the others as inactive; & = joins results of further samples; [ ] = dose if it differs, or a comment. Unless noted, % is scaled to controls: 0 for no effect and ±100 for the full control effect. These rows are one share of the data; most or all hits stand in other tables.

For N[C@@H](CO)C(=O)O the results were 15-hLO-2 inh 15%&19%&5%.
Screening NCCCC[C@H](N[C@@H](CCc1ccccc1)C(=O)O)C(=O)N1CCC[C@H]1C(=O)O returned 15-hLO-2 inh 1%[25.6 µM].
`CCOc1cc(C2C(C(=O)OC(C)C)=C(C)N=C3SCCC(=O)N32)ccc1OC(C)=O` (stereo not given) gave PNC inhibitor 19 and 15-hLO-2 inh -7%.
For Cc1ccc(-c2cc(C(=O)N3N=C(C(F)F)CC3(O)C(F)F)c3ccccc3n2)cc1C (stereo not given) the results were PNC inhibitor inconclusive and 15-hLO-2 inh 11%.
`Nc1ccc(Sc2ccccc2CC(=O)O)cc1` gave PNC inhibitor -7 and 15-hLO-2 inh -10%.
Screening CCN(C(=O)CSc1nnc(Cc2cccc3ccccc23)n1N)C1CCS(=O)(=O)C1 (stereo not given) returned PNC inhibitor -28 and 15-hLO-2 inh 3%.
For CCN(CC)S(=O)(=O)c1cccc(C(=O)Nc2ccc(Cl)cn2)c1 the results were PNC inhibitor -24 and 15-hLO-2 inh 10%.
Screening CCSc1ncccc1-c1nc2ccccc2[nH]1 returned PNC inhibitor inconclusive and 15-hLO-2 inh -5%.
For O=C(CCSCCc1ccncc1)NCCCN1CCOCC1 the results were PNC inhibitor inconclusive and 15-hLO-2 inh 2%.
`Cc1ccc2c(c1)c(Sc1ccccc1)c(CC(=O)O)n2C` gave PNC inhibitor 4.
`COC(=O)Nc1sc(C)nc1-c1ccccc1` gave PNC inhibitor -22 and 15-hLO-2 inh -7%.
`C[C@]12CCC(=O)C=C1CCC1C2C(O)C[C@]2(C)C1CC[C@]2(O)C(=O)CO` (stereo not given in full) gave 15-hLO-2 inh 6%.
Screening COc1ccc(C(=O)OCC(=O)NC(C)(C)C)cc1[N+](=O)[O-] returned PNC inhibitor -9.
`CCOc1ccc(Cl)cc1/C=N/O` gave PNC inhibitor -21 and 15-hLO-2 inh -1%.
Screening Cc1cccc(N/N=C(\C(N)=O)C2=NC(C)(C)Cc3ccccc32)c1 returned PNC inhibitor inconclusive.
Cc1ccc(Cn2c(SCC(=O)NCC3CCCO3)nc3c(sc4ccccc43)c2=O)cc1 (stereo not given) was read as PNC inhibitor inconclusive and 15-hLO-2 inh inconclusive.
C/C=C/CC(C)C(O)C1C(=O)NC(CC)C(=O)N(C)CC(=O)N(C)C(CC(C)C)C(=O)NC(C(C)C)C(=O)N(C)C(CC(C)C)C(=O)NC(C)C(=O)NC(C)C(=O)N(C)C(CC(C)C)C(=O)N(C)C(CC(C)C)C(=O)N(C)C(C(C)C)C(=O)N1C (stereo not given) was read as 15-hLO-2 inh 6%.
Screening O=C(O)[C@@H](O)[C@H](O)C(=O)O returned 15-hLO-2 inh -4%[11.4 µM].
For COc1cc(OC)c(OC)cc1CN(C)C(c1ccccc1)c1nnnn1-c1ccccc1C (stereo not given) the results were PNC inhibitor 12 and 15-hLO-2 inh 2%.
For CS(=O)(=O)n1nc(-c2ccccc2)nc1N the results were PNC inhibitor 4 and 15-hLO-2 inh -1%.
O=C(CCCn1c(=S)[nH]c2cc3c(cc2c1=O)OCO3)N1CCN(c2ccc(Cl)cc2)CC1 was read as PNC inhibitor -7 and 15-hLO-2 inh -16%.
O=C(Cn1cncn1)NCc1ccccc1Br was read as PNC inhibitor -14.
For C[N+](C)(C)CCO the results were 15-hLO-2 inh -11%&2%.
CCCCc1oc2ccccc2c1C(=O)c1cc(I)c(OCCN(CC)CC)c(I)c1 was read as PNC inhibitor -8 and 15-hLO-2 inh 32%[activator].
`COC(=O)c1ccc(CNC(=O)CSc2nc3sc(C)c(C)c3c(=O)n2C)o1` gave PNC inhibitor 32 and 15-hLO-2 inh 1%.
For O=C(Cn1cccc1)NCc1cccs1 the results were PNC inhibitor -28 and 15-hLO-2 inh 3%.
Screening COC(=O)c1[nH]c2ccc(C)cc2c1NC(=O)CN1CCN(Cc2ccccc2)CC1 returned PNC inhibitor inconclusive and 15-hLO-2 inh -6%.
For CC(C)CN(C(=O)COC(=O)c1cc2ccccc2oc1=O)C1CCS(=O)(=O)C1 (stereo not given) the results were PNC inhibitor inconclusive and 15-hLO-2 inh 4%.
O=C(CSc1nc(-c2cccs2)cc(C(F)(F)F)n1)NCCCn1ccnc1 was read as PNC inhibitor inconclusive.
For O=C(O)COCCN1CCN(C(c2ccccc2)c2ccc(Cl)cc2)CC1 (stereo not given) the results were PNC inhibitor -3 and 15-hLO-2 inh -2%&2%.

Some of these compounds in order of SMILES length, ascending.
For C[N+](C)(C)CCO the results were 15-hLO-2 inh -11%&2%.
For O=C(Cn1cccc1)NCc1cccs1 the results were PNC inhibitor -28 and 15-hLO-2 inh 3%.
O=C(Cn1cncn1)NCc1ccccc1Br was read as PNC inhibitor -14.
For O=C(O)COCCN1CCN(C(c2ccccc2)c2ccc(Cl)cc2)CC1 (stereo not given) the results were PNC inhibitor -3 and 15-hLO-2 inh -2%&2%.
O=C(CSc1nc(-c2cccs2)cc(C(F)(F)F)n1)NCCCn1ccnc1 was read as PNC inhibitor inconclusive.
`COC(=O)c1ccc(CNC(=O)CSc2nc3sc(C)c(C)c3c(=O)n2C)o1` gave PNC inhibitor 32 and 15-hLO-2 inh 1%.
For CC(C)CN(C(=O)COC(=O)c1cc2ccccc2oc1=O)C1CCS(=O)(=O)C1 (stereo not given) the results were PNC inhibitor inconclusive and 15-hLO-2 inh 4%.

Remaining list, next part
For COc1ccc(OCC(=O)NNC(=O)c2ccccn2)cc1 the results were PNC inhibitor 47 and 15-hLO-2 inh 29%.
For O=S(=O)(c1ccccc1)N1CCN(S(=O)(=O)c2ccccc2)c2ccccc21 the results were 15-hLO-2 inh -6%[11.4 µM].
Screening N#Cc1cc2c(nc1SCC(=O)O)CCCC2 returned PNC inhibitor inconclusive and 15-hLO-2 inh -5%.
Screening CC(/C=C/c1ccc2c(c1)OCO2)=N/NC(=O)COc1ccc(C)cc1 returned PNC inhibitor -25.
`COc1ccc(C2NC3=C(CCC3)C3(C#N)C(OC)(OC)N=C(N)C23C#N)cc1` (stereo not given) gave PNC inhibitor 10 and 15-hLO-2 inh -5%.
Screening CCN=C1S/C(=C\c2ccc(N3CCOCC3)cc2C)C(=O)N1CC returned PNC inhibitor 33.
For CC(=O)Nc1ccc(S(=O)(=O)NCCN2CCOCC2)cc1 the results were PNC inhibitor 47 and 15-hLO-2 inh 2%.
Cc1cc2ncn(/N=C/c3ccc([N+](=O)[O-])s3)c2cc1C was read as PNC inhibitor -22.
`COc1ccc(/C=C2\N=C(SC)SC2=O)cc1OC` gave PNC inhibitor inconclusive and 15-hLO-2 inh -11%.
COc1ccc(Cl)cc1NC(=O)C1CCCN(c2cc(C)nc3ncnn23)C1 (stereo not given) was read as PNC inhibitor -1 and 15-hLO-2 inh 7%.
For FC(F)(F)c1cc(-c2ccccc2)nc(N2CCOCC2)n1 the results were PNC inhibitor 44 and 15-hLO-2 inh 16%.
Screening CC(C)Sc1nc(O)c(Cc2ccccc2)c(=O)[nH]1 returned PNC inhibitor inconclusive and 15-hLO-2 inh -5%.
`CC(C)OCCCn1c(=S)[nH]c2ccc(N3CCOCC3)cc2c1=O` gave PNC inhibitor 27 and 15-hLO-2 inh -4%.
For CC1C(c2ccccc2)N(C)C(c2ccccc2)C(C)C1(O)C#Cc1ccccc1 (stereo not given) the results were PNC inhibitor 17.

Filtered by structure, the compounds so far containing a cyano group.
Screening N#Cc1cc2c(nc1SCC(=O)O)CCCC2 returned PNC inhibitor inconclusive and 15-hLO-2 inh -5%.
`COc1ccc(C2NC3=C(CCC3)C3(C#N)C(OC)(OC)N=C(N)C23C#N)cc1` (stereo not given) gave PNC inhibitor 10 and 15-hLO-2 inh -5%.

High-throughput results: PubChem BioAssay, National Center for Advancing Translational Sciences (NCATS)
